RecA intein inh: inhibitors of M. tuberculosis RecA intein splicing. 290,000 compounds, 0.75% hits. inhibition, %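 (about 9 µM by stock and volumes)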. AID 2221. cell-free RecA intein splicing, fluorescence. P9WHJ3; in the data active means inhibition above about 30%; inconclusive means no clear call, values can overlap the other calls;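 further: 0% = vehicle wells and 100% = reference inhibitor control wells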
Target sequence (P9WHJ3 whole entry, looked up): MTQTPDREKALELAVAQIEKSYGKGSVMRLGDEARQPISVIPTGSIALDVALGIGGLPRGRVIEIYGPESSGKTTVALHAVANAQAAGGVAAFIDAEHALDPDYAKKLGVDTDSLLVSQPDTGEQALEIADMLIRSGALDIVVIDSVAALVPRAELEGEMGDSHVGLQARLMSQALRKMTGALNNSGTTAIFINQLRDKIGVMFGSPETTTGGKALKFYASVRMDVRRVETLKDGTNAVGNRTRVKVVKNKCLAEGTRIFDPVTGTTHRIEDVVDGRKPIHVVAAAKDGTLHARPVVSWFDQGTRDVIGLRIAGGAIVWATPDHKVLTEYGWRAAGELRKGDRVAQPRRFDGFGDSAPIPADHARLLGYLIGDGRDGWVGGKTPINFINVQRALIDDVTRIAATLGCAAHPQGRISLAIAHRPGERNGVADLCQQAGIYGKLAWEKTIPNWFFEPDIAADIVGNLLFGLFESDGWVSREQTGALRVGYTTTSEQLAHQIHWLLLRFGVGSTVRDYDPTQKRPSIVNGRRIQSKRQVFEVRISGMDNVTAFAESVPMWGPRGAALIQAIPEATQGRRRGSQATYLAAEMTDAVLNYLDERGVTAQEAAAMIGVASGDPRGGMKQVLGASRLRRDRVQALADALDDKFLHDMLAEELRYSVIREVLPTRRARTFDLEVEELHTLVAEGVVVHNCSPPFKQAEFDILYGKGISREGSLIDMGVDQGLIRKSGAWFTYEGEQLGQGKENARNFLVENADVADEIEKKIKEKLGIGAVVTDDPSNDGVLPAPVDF
Mtb growth: M. tuberculosis H37Rv growth inhibitors, H37Rv strain (AID 1626) | M. tuberculosis H37Rv growth inhibition; higher % means a stronger effect | inhibition, % at 10 µM; hits with a dose series show IC50 in µM | 220,000 compounds, 0.95% hits;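 active means confirmed in a dose series; inconclusive means inhibition above 80% but not taken into the dose series; inactive means below 80% or under 30% at every dose of the series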;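 further: bacteria incubated seven days before Alamar blue readout; 0% = bacteria only wells and 100% = bacteria with antibiotic wells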
Mtb bLac sens: beta-lactam sensitization of Mtb H37Rv; 330,000 compounds, 0.27% hits; inhibition, % at 25 µM; M. tuberculosis H37Rv growth with meropenem, percent inhibition; hits of this screen are not shown here;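 active means about 74% or more and at least 40 points above the plate without the antibiotic, then above 30% in a dose series; inconclusive means first-round hits that could not be retested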;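 further: growth measured after seven days incubation then overnight dye step; 0% = bacteria only wells and 100% = bacteria with antibiotic; twin plates without the antibiotic show which effects depend on it; some results filed as inactive read as strong as hits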
Arbovirus inh: blocks arbovirus infection; inhibition, % at 10 µM; arbovirus infection cell-based antiviral screen; 200,000 compounds, 0.37% hits;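 active means inhibition from about 30%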;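 further: bluetongue infection of BSR cells; cell survival read as ATP light after 72 h; 0% = infected wells without compound and 100% = uninfected wells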
YopH inh: YopH (Yersinia) phosphatase inhibition; inhibition, %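 (about 10 µM by stock and volumes)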; fluorescence Ex485/Em525; 140,000 compounds, 0.16% hits;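 active means inhibition of 50% or more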;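 further: controls were vehicle for no effect and minimum signal wells for full effect; inactives centre near -20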
Arbovirus inh repeat: recorded beside Arbovirus inh, whose call it bears; inhibition, %; measured here: 10K subset replicate screen; many hits read low in the repeat;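 first of two repeat runs on a subset; 0% = infected and 100% = uninfected wells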
* = called active by the depositor; ? = inconclusive; . = not tested or not shown.

SMILES | RecA intein inh | Mtb growth | Mtb bLac sens | Arbovirus inh | YopH inh | others
COCc1cc(C)nc(SCC(=O)Nc2nc(C)cs2)c1C#N | -57 | . | 10 | . | .
CC(C)(C)OC(=O)N[C@@H](Cc1ccccc1)C(=O)N[C@@H](CO)[C@H](O)[C@@H]1C[C@@H]1C(=O)N1CCCC1 | -2.6 | . | -9 | . | .
CCC(=O)Nc1sc(C(=O)Nc2ccccc2F)c(C)c1C(=O)OC | 0.8 | -6% | 5 | -4 | .
CCOC(=O)c1c(CC(C)C)csc1NC(C)=O | 0.9 | 10% | 1 | -7 | -11
CCCOc1ccc(CCc2n[nH]c(=S)n2Cc2ccccc2)cc1 | 9.5 | -2% | 1 | -4 | -33
CC(CN1CCOCC1)OC(=O)c1ccccc1Br (stereo not given) | 0.3 | -2% | -8 | 9 | -37
C=C(C)Cn1c(SCC(=O)O)nnc1-c1ccc(C(C)(C)C)cc1 | -0.1 | -18% | -13 | 7 | 0 | Arbovirus inh repeat=4
COc1cccc(C(=O)OCC(=O)NCCCc2ccccc2)c1 | 2.5 | . | 2 | . | .
Nc1nc(SCC(=O)N2CCCCCC2)[nH]c(=O)c1NC(=O)c1ccco1 | . | -1% | -1 | -1 | .
CCOC(=O)c1sc(NC(=O)C(C)Sc2nc(N)cc(=O)[nH]2)nc1C (stereo not given) | -2.2 | -9% | 4 | 7 | .
COC(=O)c1cccc(NC(=S)Nc2cccc(Cl)c2C)c1 | 3.0 | -4% | 10 | 4 | -24
CN(C)S(=O)(=O)c1cc(NC(=O)COC(=O)Cc2ccc(Cl)cc2Cl)ccc1Cl | 1.8 | 3% | 9 | 4 | 11
Cc1nn(-c2ccc(F)cc2F)c(=O)c2noc(C)c12 | -0.9 | -12% | -13 | . | .
CCOC(=O)c1cnn(-c2ccccc2)c1NC(=O)CN1CCOCC1 | 2.4 | -4% | 0 | . | .
Cc1c(O)ccc2c(CN(C)Cc3ccccc3)cc(=O)oc12 | -2.7 | -8% | -2 | . | .

Retrieved by structure from the entries so far (5):
SMILES | RecA intein inh | Mtb growth | Mtb bLac sens | Arbovirus inh | YopH inh | others
CCC(=O)Nc1sc(C(=O)Nc2ccccc2F)c(C)c1C(=O)OC | 0.8 | -6% | 5 | -4 | .
COCc1cc(C)nc(SCC(=O)Nc2nc(C)cs2)c1C#N | -57 | . | 10 | . | .
CCCOc1ccc(CCc2n[nH]c(=S)n2Cc2ccccc2)cc1 | 9.5 | -2% | 1 | -4 | -33
Nc1nc(SCC(=O)N2CCCCCC2)[nH]c(=O)c1NC(=O)c1ccco1 | . | -1% | -1 | -1 | .
CCOC(=O)c1c(CC(C)C)csc1NC(C)=O | 0.9 | 10% | 1 | -7 | -11

Next section.
SMILES | RecA intein inh | Mtb growth | Mtb bLac sens | Arbovirus inh | YopH inh | others
Fc1ccc(-n2c(=S)[nH]c3cccnc32)cc1 | -1.0 | . | -4 | . | .
COc1cc2cc(C(c3nnnn3C3CCCC3)N3CCCCC3)c(=O)[nH]c2cc1OC (stereo not given) | -2.5 | 8% | 8 | -2 | -36
N#C/C(=C\c1ccc([N+](=O)[O-])cc1)c1ccccn1 | 11 | 8% | 45 | -9 | .
CC(=O)Nc1ccc(NC(=O)CSc2nc3nc(-c4cccs4)cc(C(F)(F)F)c3c(=O)[nH]2)cc1 | 4.7 | -15% | -5 | . | .
Cn1c(C(O)c2ccccc2F)nc(Cl)c1Cl (stereo not given) | -2.4 | -1% | 3 | 1 | -8
O=C1CCCN1CCCNC(=S)Nc1ccc(F)c(Cl)c1 | 4.3 | 2% | -3 | 21 | .
Cc1cc(Br)ccc1NC(=O)CN(C)C(=O)CCSc1ccc(F)cc1 | -0.8 | . | -18 | . | .
CC(=O)c1cccc(NC(=O)N2CCCC2C(=O)NCCC(C)C)c1 (stereo not given) | -5.6 | 6% | -6 | 5 | -31
Cc1cc2ccccn2c1C(=O)c1ccccc1F | 4.6 | . | 6 | . | .
CC1(C)NC(=O)N(CCOc2ccc([N+](=O)[O-])cc2)C1=O | 0.1 | 3% | -1 | 5 | .
COc1ccc(/C=C/C(=O)N(C)C2CCCCC2)cc1Br | 6.7 | 43% | 80 | -10 | .
CCN(CC)C(=O)c1ccccc1NC(=O)c1cccc(S(=O)(=O)N(CC)CC)c1 | 0.7 | -9% | ? | -1 | -32
C=CCNC(=O)C12CCC(C)(C(=O)[C@H]1Br)C2(C)C (stereo not given in full) | -1.9 | -5% | -3 | . | .
COC(=O)C1=C(C)NC(=O)/C1=C\c1cc(C)n(-c2cc(C)cc(C)c2)c1C | 4.5 | 15% | . | 8 | 5
Cc1cccnc1NC(=O)CN1C(=O)c2ccccc2S1(=O)=O | -0.2 | . | -1 | . | .
C=CCn1c(O)c(/C=C2/C=c3ccccc3=N2)c(=O)[nH]c1=S | 2.6 | . | 10 | . | .
O=C(c1ccc(Cl)nc1)N1CCN(C/C=C/c2ccccc2)CC1 | 4.3 | -1% | -4 | 6 | .
O=C(Nc1nnc(C2=COCCO2)o1)c1cccc(Br)c1 | 8.4 | . | 87 | . | .
Nc1nonc1-n1nnc(C(=O)N/N=C/c2ccccc2Cl)c1CSc1ccccc1 | . | -4% | -1 | . | .
O=C(CCS(=O)(=O)c1ccccc1)Nc1ccc2c(c1)C(=O)NC2=O | -1.8 | -4% | -4 | 1 | .
CN(C)S(=O)(=O)c1ccc(NC(=O)c2cc(-c3cccs3)nc3ccccc23)cc1 | -5.7 | 0% | 6 | 11 | -34
COc1ccc(NC(=O)CC2C(=O)N(C)C(=S)N2Cc2ccco2)cc1 (stereo not given) | -4.6 | 5% | -4 | -8 | -9
O=c1[nH]cc(N=Cc2cc(Cl)cc(Cl)c2O)c(=O)[nH]1 | 77* | . | 0 | . | .
CC[C@H](C)[C@@H]1NC(=O)c2cc([N+](=O)[O-])cc(F)c2NCCCC[C@@H](C(N)=O)NC(=O)[C@H](CCCCN)NC1=O | 0.6 | 4% | 12 | -10 | -30
O=C(Cc1ccccc1[N+](=O)[O-])NCCc1ccc(F)cc1 | 1.4 | . | -3 | . | .
CSCCC(NS(=O)(=O)c1ccc2c(c1)Cc1cc(S(=O)(=O)NC(CCSC)C(=O)O)ccc1-2)C(=O)O (stereo not given) | -0.8 | . | -12 | . | .
C/C(=C\c1ccccc1)C(=O)Nc1nccs1 | -4.2 | 23% | . | 4 | .
CCOc1ccc(-n2cc(C(=O)c3cc(Cl)ccc3O)cc(C#N)c2=O)cc1 | -4.4 | 25% | -5 | 11 | .
CCOc1ccccc1C(=O)N1CCN(c2ccc(C(F)(F)F)cn2)CC1 | 6.4 | 9% | -11 | 9 | .
Cc1ccc(C)n1-c1ccc(N2CCOCC2)cc1 | 0.4 | -2% | 1 | -6 | -2 | Arbovirus inh repeat=-7

The final four entries of the part above lead into the next.
SMILES | RecA intein inh | Mtb growth | Mtb bLac sens | Arbovirus inh | YopH inh | others
C/C(=C\c1ccccc1)C(=O)Nc1nccs1 | -4.2 | 23% | . | 4 | .
CCOc1ccc(-n2cc(C(=O)c3cc(Cl)ccc3O)cc(C#N)c2=O)cc1 | -4.4 | 25% | -5 | 11 | .
CCOc1ccccc1C(=O)N1CCN(c2ccc(C(F)(F)F)cn2)CC1 | 6.4 | 9% | -11 | 9 | .
Cc1ccc(C)n1-c1ccc(N2CCOCC2)cc1 | 0.4 | -2% | 1 | -6 | -2 | Arbovirus inh repeat=-7
CCN1CCN(CC(O)COc2ccc3c(C)cc(=O)oc3c2)CC1 (stereo not given) | -0.4 | -3% | -2 | -6 | .
COc1ccc(C(=O)NCCc2nnc(SCC(=O)Nc3ccccc3F)n2C)cc1 | 12 | 1% | -7 | 3 | .
CC(=O)c1ccc(S(=O)(=O)Nc2ccc(-n3c(C)nc4ccccc4c3=O)cc2)cc1 | -1.1 | . | -4 | . | .
CCn1c(CNC(=O)C23CC4CC(CC(C4)C2)C3)nnc1SC | -0.1 | 1% | 3 | 3 | .
CCOc1cccc(=O)c2c(C)n(CC3CCCO3)c(C)c12 (stereo not given) | 2.5 | -6% | 7 | 4 | -24 | Arbovirus inh repeat=3
Cc1ccccc1Cn1c(C)nc2ccc([N+](=O)[O-])cc2c1=O | 1.1 | . | -7 | . | .
Nc1ccc(NC(=O)c2ccccc2)c2c1C(=O)c1ccccc1C2=O | . | -7% | -5 | -8 | -21
C[C@@H](C(=O)N[C@H](C(=O)O)c1ccccc1)n1nnc2ccccc2c1=O | -2.4 | -3% | -4 | -3 | -21
Cc1ccc(NS(=O)(=O)c2ccc(OCC(=O)N3CCOCC3)cc2)cc1 | 1.0 | -3% | 4 | 6 | -19
Cc1ccc(OCc2nnc(SCC(=O)C(C)(C)C)n2Cc2ccco2)cc1 | 8.9 | 7% | -5 | 1 | -35
CC(=O)Nc1ccc2c3c(cccc13)C(=O)N(c1ccccc1)C2=O | -223 | -1% | 8 | -3 | .
Cc1ccccc1C(=NC(=O)c1ccccc1)c1ccccc1 | 7.3 | -1% | -2 | 0 | -29
CCCCOc1ccccc1C(=O)N(Cc1ccco1)C1CCS(=O)(=O)C1 (stereo not given) | 1.8 | . | 3 | . | .
CCCCOc1ccc(S(=O)(=O)Nc2cccnc2)cc1 | -2.1 | -6% | 1 | 5 | -27
COc1ccc(C(=O)N[C@H](C(=O)Nc2sccc2C(N)=O)C(C)C)cc1 | 2.9 | . | -7 | . | .
CC(C)c1ccc(CN(C(=O)C2COc3ccccc3O2)C2CCS(=O)(=O)C2)cc1 (stereo not given) | 2.4 | 4% | 18 | 3 | 19
Cc1ccc(NC(=S)NC(=O)c2c(-c3ccccc3Cl)noc2C)cc1 | 1.9 | . | 1 | 13 | -39
Cc1csc2nc(CNC(=O)C3CCCCC3)cn12 | 0.1 | -4% | 0 | 4 | -30 | Arbovirus inh repeat=3
COc1ccc(-c2nnc(SCC(=O)O)n2Cc2ccccc2)cc1 | -2.2 | . | -8 | . | .
Cc1ccc(OS(=O)Nc2cccc3nccnc23)cc1 (stereo not given) | 2.1 | ? | 86 | -2 | -50 | Arbovirus inh repeat=-13
COc1cccc(C(=O)NCCS(=O)(=O)NCCCc2ccccc2)c1 | 2.0 | . | -2 | . | .
COc1ccc(C(=O)NCCSCc2cccc(Cl)c2)cc1OC | -3.0 | . | 2 | . | .
CSc1nnc2c(n1)OC(c1cccn1C)N(C(C)=O)c1ccccc1-2 (stereo not given) | 2.2 | -2% | ? | 6 | -15
Cc1cccc(NC(=O)c2cccc(N3C(=O)C4CCC(C)CC4C3=O)c2)c1C (stereo not given) | 0.2 | . | -12 | . | .
N/C(=N\OC(=O)c1ccc2ccccc2c1)c1ccccc1Cl | 3.4 | . | 32 | . | .
CC(=O)n1cc([C@H]2C=C(C(=O)Nc3ccccc3)O[C@@H](OCc3ccc(CO)cc3)C2)c2ccccc21 | 0.7 | 9% | -3 | 21 | .
COC(=O)c1nn(-c2ccc(Cl)cc2)c(=O)cc1Sc1ccccn1 | 0.5 | 2% | 4 | 10 | -2
COc1ccc(-c2nc(CS(=O)CC(=O)NCCC3=CCCCC3)c(C)o2)cc1 (stereo not given) | 0.2 | 8% | -7 | 4 | -30 | Arbovirus inh repeat=-5
O=C(CCC1CCCCC1)Nc1nccs1 | -2.5 | 2% | 0 | 5 | .
COc1ccc(S(=O)(=O)N2CCCCCC2)cc1NC(=O)c1c2c(nc3ccccc13)CCN(Cc1ccccc1)C2 | 6.9 | 9% | 6 | -2 | -27
O=C(CCCc1ccccc1)Nc1cccc(C(=O)O)c1 | 0.7 | -3% | -4 | 5 | .
CC(C(=O)N1CCCCC1)n1ncn2cccc2c1=O (stereo not given) | 1.6 | -1% | -17 | -2 | -21
CCOc1nc(-c2ccc(Cl)cc2Cl)ccc1C#N | 3.1 | 0% | 1 | -10 | -29
CCOc1ccc(S(=O)(=O)N(CCO)CCO)cc1-c1nc2c(C(C)(C)C)nn(C)c2c(=O)[nH]1 | -5.4 | -4% | 1 | -4 | -12
COC(=O)CNC(=O)COC(=O)c1cc(SC)ccc1Cl | -1.2 | -1% | -1 | 23 | .
C=CCN(CC=C)Cc1c[nH]c2ccccc12 | 0.0 | 1% | 12 | 26 | -49
CCNc1ccc(C(=O)OCC(=O)NCc2ccccc2Cl)cc1[N+](=O)[O-] | -4.5 | 2% | -1 | -13 | -16
Cn1nc(-c2ccc(Cl)cc2)c2cc(C(=O)NCc3ccco3)sc21 | 3.2 | 18% | 9 | 14 | -41 | Arbovirus inh repeat=0
Cn1c(=O)c2c(ncn2Cc2ccc(Cl)cc2)n(C)c1=O | 8.4 | 10% | -1 | -18 | .
O=C1NCCCC1C(=O)N/N=C/c1cccc(O)c1 (stereo not given) | -0.8 | -10% | -6 | 9 | -25
Cc1nc2ccccc2nc(C)c1=NOCC(=O)N(c1ccccc1)C(C)C | 0.8 | 3% | -9 | 2 | .

A portion of the library, so the mix of outcomes need not match the whole.
